Bioassay records from PubChem.
Vif A3G: inhibitors of Vif binding to APOBEC3G peptide, primary screen, biochemical, TR-FRET, GST-Vif 1-94, biotin-A3G peptide, dose response retest (AID 1117319); Virion infectivity factor (Human immunodeficiency virus type 1 group M subtype B (isolate …; 260,000 compounds, 0.57% hits; inhibition, %; hits with a dose series show IC50 in µM; TR-FRET GST-Vif / biotin-A3G peptide binding; higher % means a stronger effect; test concentration not given here; strong numbers were not always called active;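 active means above the screen mean plus three standard deviations and confirmed in dose response; inconclusive means results disagree or hit not tested in dose response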;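 further: Vif residues 1-94 fused to GST binding biotinylated APOBEC3G peptide 110-148; 0% = full assay without inhibitor and 100% = GST in place of GST-Vif; retest series ran down from 100 µM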
E coli growth: E. coli growth inhibition, primary screen, OD600; 330,000 compounds, 0.21% hits; Escherichia coli growth, 23 h; stronger effect = lower value; OD600 absorbance (concentration not given with the values);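 active means OD600 absorbance below the run mean of sample wells minus 3.6 SD, in any replicate, cut at about 0.56 in these data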;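 further: stock transfer was 300 nL into about 60 µL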
Ecoli rRNA inh: reduced GFP signal of wild-type E. coli, primary screen, bacterial rRNA inhibitor project, GFP/RFP fluorescence, OD600, single point | E. coli WT GFP vs humanized-ribosome RFP mutants, 24 h; stronger effect = lower value; DMSO median 0, no signal -100 | 350,000 compounds, 1.6% hits | GFP signal change (wild-type ribosome), % (no concentration beside the values);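 active means significant combined selectivity score with lowered wild-type GFP, culture density cut under 30%, mutant RFP and density less affected; inactive means any of these conditions unmet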; further: one replicate is shown; some compounds called inactive have numbers as strong as hits
AF4-AF9 inh: inhibitors of AF4 peptide binding to AF9, primary screen, biochemical, AlphaScreen, biotin-AF4 peptide, FLAG-AF9, single point | inhibition, % at 10 µM | 350,000 compounds, 0.47% hits | AID 651704, 2012;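 active means every replicate reaching a set inhibition limit, whatever the replicate mean, cut at about 25% in these data; inconclusive means mean inhibition reaches that limit but some replicates miss it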;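 further: 0% = plate neutral control median and 100% = total signal loss; the record names both 10 and 1 µM as test concentration; the first replicate is given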
Target sequence (P42568 whole entry, looked up): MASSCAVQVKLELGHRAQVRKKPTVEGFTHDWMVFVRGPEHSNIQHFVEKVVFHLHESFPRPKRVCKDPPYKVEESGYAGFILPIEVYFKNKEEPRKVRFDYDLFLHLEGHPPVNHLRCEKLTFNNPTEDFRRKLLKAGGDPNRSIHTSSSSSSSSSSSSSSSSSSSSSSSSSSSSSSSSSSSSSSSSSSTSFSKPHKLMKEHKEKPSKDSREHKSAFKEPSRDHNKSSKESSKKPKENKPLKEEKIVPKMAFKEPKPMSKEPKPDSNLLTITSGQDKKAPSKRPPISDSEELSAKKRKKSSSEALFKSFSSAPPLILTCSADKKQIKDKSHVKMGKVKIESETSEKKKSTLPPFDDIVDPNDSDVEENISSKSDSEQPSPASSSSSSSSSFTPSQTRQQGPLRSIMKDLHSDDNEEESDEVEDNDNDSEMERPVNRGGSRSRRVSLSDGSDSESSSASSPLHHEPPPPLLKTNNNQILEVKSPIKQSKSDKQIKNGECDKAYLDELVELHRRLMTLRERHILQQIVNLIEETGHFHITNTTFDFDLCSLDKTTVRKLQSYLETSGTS
HNF4A DNA FP: change in binding of human HNF4A to DNA, primary screen, biochemical, fluorescence polarization, FITC-DNA; activity change, % at 10 µM; 1 h; 360,000 compounds, 0.3% hits; AID 1224865, 2016; Hepatocyte nuclear factor 4-alpha (Homo sapiens), P41235; in the data active means activity change above about 30%, passing the limit was not always enough;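 further: controls were the assay level and a saturating level of protein; the project sought stronger binding though the title names inhibitors; some compounds called inactive have numbers as strong as hits; positive values seem to mean higher polarization but the record does not say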
FGF22 binding: binders of human FGF22 protein, primary screen, FGF22 synaptogenesis inhibitor project, biophysical, thermal shift, single point. Fibroblast growth factor 22 (Homo sapiens), Q9HCT0. recombinant FGF22 thermal shift, SYPRO orange fluorescence; percent of sucrose octasulfate shift, DMSO zero. calls only at 9.99 µM. 340,000 compounds, 1.5% hits. AID 651658, 2012;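 active means melting point raised past a set limit in the mean and every replicate; inconclusive means no clear call; three in four hits are not shown here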
Target sequence (Q9HCT0 whole entry, looked up): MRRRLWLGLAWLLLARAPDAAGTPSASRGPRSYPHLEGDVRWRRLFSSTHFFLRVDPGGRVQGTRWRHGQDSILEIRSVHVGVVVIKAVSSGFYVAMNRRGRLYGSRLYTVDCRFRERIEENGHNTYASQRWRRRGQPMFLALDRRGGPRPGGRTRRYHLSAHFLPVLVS
ALR H2O2 inh: inhibitors of human ALR sulfhydryl oxidase, primary screen, biochemical, H2O2 detection, HRP-luminol luminescence, single point; 290,000 compounds, 3.8% hits; purified ALR, DTT oxidation; inhibition, % (concentration not given with the values); FAD-linked sulfhydryl oxidase ALR (Homo sapiens), P55789;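 active means mean and each replicate at 75% or more; inconclusive means only one of the two met; inactive means neither met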;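 further: stock transfer was 7.5 nL into about 7.5 µL; 0% = neutral wells and 100% = wells with inactivated enzyme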
Target sequence (P55789 whole entry, looked up): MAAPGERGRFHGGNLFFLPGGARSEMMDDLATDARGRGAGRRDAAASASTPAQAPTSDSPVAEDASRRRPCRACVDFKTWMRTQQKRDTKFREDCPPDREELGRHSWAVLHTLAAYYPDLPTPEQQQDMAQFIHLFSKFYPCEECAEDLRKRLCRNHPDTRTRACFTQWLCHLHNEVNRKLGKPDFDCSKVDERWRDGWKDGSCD
Ecoli rRNA inh OD600: also measured in Ecoli rRNA inh; calls as there; OD600 change, %; measured here: OD600 growth;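 optical density of the mix in the first replicate; 0 = DMSO median and -100 = no signal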
Ecoli rRNA inh RFP: further read-out of Ecoli rRNA inh, marked with its call; RFP signal change, %; measured here: RFP humanized mutant strains;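 first replicate; 0 = DMSO median and -100 = no signal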
Numbers without * were called inactive; i = inactive; ? = inconclusive; . = not tested or not shown. These rows are one share of the data; the hit share may differ from the screen's.

SMILES	Vif A3G	E coli growth	Ecoli rRNA inh	Ecoli rRNA inh OD600	Ecoli rRNA inh RFP	AF4-AF9 inh	HNF4A DNA FP	FGF22 binding	ALR H2O2 inh
COc1ccc([C@H]2Cc3cc(O)cc(O)c3C(=O)O2)cc1O	.	.	-13.6	-32.5	-8.1	-13.8	1.4	i	67.8
CCOC(=O)CSc1n[nH]c(NC(=O)c2cccc(C)c2)n1	1.7%	0.716	.	.	.	.	-3.2	.	97.2*
C[C@H](CO)N1C[C@H](C)[C@H](CN(C)C(=O)c2cccc(F)c2)Oc2cc(-c3cccc(F)c3)ccc2S1(=O)=O	.	.	-11.6	-13.9	2.8	1.7	.	i	.
COc1ccccc1NC(=O)Nc1ccncc1	-8.7%	0.642	13.9	10.8	0.2	-0.5	-2.2	.	-2.7
COc1ccc(C)cc1NC(=O)CN1C(=O)COc2ccc(S(=O)(=O)N3CCC(C)CC3)cc21	2.4%	0.674	4.9	15.0	0.0	1.1	0.5	i	1.4
CCc1nnc(NC(=O)CCC(=O)NCc2ccc(OC)cc2)s1	-3.0%	0.664	-4.0	-2.3	-1.2	0.6	-1.2	i	-6.1
O=C(CSc1ccc(Cl)cc1)N/N=C/c1cccnc1	-3.5%	.	12.8	10.5	3.3	1.8	2.0	i	-7.8
O=C(NC1CCCCC1)Oc1cccc2ccccc12	6.4%	0.726	6.9	-2.7	14.1	-3.6	-2.8	i	-32.1
CC(C)NC(=O)N(C)C[C@@H]1OCCCC[C@H](C)Oc2ccc(NC(=O)Nc3ccc(C(F)(F)F)cc3)cc2C(=O)N([C@@H](C)CO)C[C@H]1C	.	.	-0.2	-0.9	-2.0	3.8	.	i	.
Cc1ccc(S(=O)(=O)Nc2ccc3c(c2)C(=O)N(C)[C@@H]2CC[C@@H](CC(=O)O)O[C@H]2CO3)cc1	.	.	3.2	-1.3	-0.8	-0.1	.	i	.
COc1ccc(S(=O)(=O)Nc2ccc3c(c2)[C@@H]2C[C@H](CC(=O)NCC4CC4)O[C@H](CO)[C@@H]2O3)cc1	.	.	-4.8	-15.9	-1.0	-0.1	.	i	.
COc1ccc(S(=O)(=O)N(CC(=O)NCc2ccco2)c2ccc(F)cc2)cc1	.	0.679	-8.7	-3.4	-0.8	1.2	1.5	i	.
CO[C@H](CN(C)C(=O)c1ccc2c(c1)OCO2)[C@H](C)CN([C@@H](C)CO)S(=O)(=O)c1ccc(Cl)cc1	.	.	0.9	-2.1	-0.6	0.3	.	i	.
NC(=NC(=O)c1ccccc1)N1CCN(C(c2ccccc2)c2ccccc2)CC1	-9.1%	0.698	3.5	-1.0	-1.7	-23.6	0.1	i	-5.2
O=C1CSCN1c1cc(Cl)ccc1Cl	6.0%	0.699	21.3	10.8	-0.3	0.4	-2.6	i	42.3
Cc1ccc(NC(=O)NC2CCCN2S(=O)(=O)c2ccc(Cl)cc2)cc1 (stereo not drawn)	7.9%	0.658	.	.	.	.	-2.3	.	.
COC(C(=O)Nc1ccc(Br)cc1F)c1ccccc1 (stereo not drawn)	8.4%	0.686	-26.9	-26.8	-3.4	-0.9	1.0	i	-1.8
COc1ccc(NC(=O)CC(NCc2ccccn2)C(=O)O)cc1 (stereo not drawn)	?	0.68	0.2	3.5	-1.8	-1.5	2.3	i	-3.3
O=C(CC1C(=O)N(c2ccccc2)C(=S)N1c1ccccc1)c1ccccc1 (stereo not drawn)	.	0.68	-8.0	-13.4	-5.5	0.9	-1.9	i	-13.6
Cc1ccc(S(=O)(=O)ON2C(=O)c3ccccc3C2=O)c(C)c1	.	0.686	14.6	4.8	3.7	-9.6	-0.6	i	45.5
Cn1c(=O)c2c(nc(CN3CCOCC3)n2CCCO)n(C)c1=O	6.1%	0.684	.	.	.	.	0.3	.	-27.4
O=C1Nc2ccc(S(=O)(=O)N3CCCC3C(=O)O)c3cccc1c23 (stereo not drawn)	-0.5%	0.714	1.3	7.4	1.3	-2.3	0.2	i	-21.2
c1ccc2c(c1)nc(Nc1ccc(N3CCCCC3)cc1)c1nncn12	31.1%	.	6.3	11.1	5.9	36.4*	4.0	i	?
O=C(NCc1ccc(Cl)cc1)c1ccccc1CCc1ccccc1	.	0.675	.	.	.	.	1.5	.	2.8
CNC(=S)N1N=C(c2ccc(Br)cc2)CC1c1ccc(N(C)C)cc1 (stereo not drawn)	-23.5%	0.751	25.8	1.3	2.0	26.8*	0.2	i	.
Cc1cccc(NCC(=O)N/N=C\c2ccc[nH]2)c1	.	.	-2.8	-17.6	-5.1	6.1	1.3	i	54.1
COc1ccc(OCC(=O)NNC(=O)Nc2cccc(Cl)c2)cc1	.	0.67	-3.8	-0.1	4.4	0.5	-0.9	i	-12.4
Cc1n[nH]c(=O)c2c(NC(=O)COC(=O)c3cccc(OC(F)F)c3)oc(C)c12	12.6%	0.553	5.0	2.1	1.0	-1.7	1.9	i	-12.5
Cc1cc(N2C(=O)C3CC=CCC3C2=O)cc(C)c1Br (stereo not drawn)	16.1%	0.712	.	.	.	.	-3.4	.	-4.3
COCC(=O)N1[C@H](C(=O)Nc2ccccc2)[C@@H](CO)[C@@H]2Cn3c(ccc(-c4ccncc4)c3=O)[C@@H]21	.	.	1.7	3.7	-1.8	-0.8	.	i	.
COc1ccc(Cl)cc1C(=O)NNC(=S)NC(=O)c1cc(-c2ccccc2)nc2ccccc12	-2.7%	0.764	.	.	.	.	-2.0	.	.
O=C(C[C@H]1C=C[C@H](NC(=O)Nc2ccc(C(F)(F)F)cc2)[C@@H](CO)O1)NCCN1CCCC1	.	.	-0.7	5.7	-0.7	2.2	.	i	.
O=C(CCn1c(=O)oc2ccccc21)N1CCc2ccccc21	19.4%	0.681	.	.	.	.	-2.9	.	.
COc1cc(S(=O)(=O)N2CCN3CCCC3C2)ccc1-n1cnnn1 (stereo not drawn)	0.0%	0.714	15.3	11.7	0.5	-2.0	-1.2	i	-4.6
COC(=O)CCCC1=CC2=CC(=O)C(C)(OC(=O)c3cccs3)C(=O)C2=CN1CC1CC1 (stereo not drawn)	.	0.672	9.8	8.2	24.4	2.9	0.4	i	-12.0
Cc1cc2cc(CN3C(=O)c4ccccc4C3=O)ccc2[nH]1	-12.6%	0.718	7.5	7.1	42.8	-2.2	0.2	i	-4.8
O=C(Nc1ccccc1)c1ccc(-n2cnnn2)cc1	.	0.727	18.2	13.4	4.8	-0.8	-0.3	i	-0.5
Cc1sc(NC(=O)Nc2ccccc2)c(C(N)=O)c1C	15.3%	0.668	3.1	-3.3	-3.8	-1.2	5.6	i	38.0
Cn1c(CN2CCN(C(=O)c3ccc(F)cc3)CC2)nc2cc([N+](=O)[O-])ccc21	.	0.682	0.0	8.3	1.8	2.7	2.0	i	-3.6
COCC(=O)Nc1ccc(Nc2ccccc2)cc1	20.6%	0.696	.	.	.	.	-2.7	.	.
COc1ccccc1OCC(=O)NNC(=O)C1CCN(c2ncnc3sc(C)c(C)c23)CC1	3.5%	0.678	-12.7	-6.1	1.0	-1.9	4.5	i	1.4
CC(C)NC(=O)Nc1ccc2c(c1)C(=O)N(C)[C@@H]1CC[C@@H](CC(=O)NCc3ccc(F)cc3)O[C@H]1CO2	.	.	1.0	14.2	-0.8	0.3	.	i	.
CCCc1nnc(NC(=O)c2ccc(N3C(=O)C4C5C=CC(C5)C4C3=O)cc2)s1 (stereo not drawn)	5.5%	0.707	.	.	.	.	-2.8	.	-5.7
CN(C)C(C)(C)/C=C/C(O)(c1ccccc1)c1ccccc1	-3.8%	.	22.8	7.7	0.7	11.9	-1.8	i	0.6
COC(=O)C[C@@H]1C[C@H]2c3cc(NS(C)(=O)=O)ccc3O[C@H]2[C@@H](CO)O1	.	.	1.4	4.4	-1.0	-4.3	.	i	.
CSc1nc2ccc(S(=O)(=O)N3CCCCC3)cc2s1	10.3%	0.731	.	.	.	.	-2.0	.	-9.7
CC1=NN(c2ccccc2)C(=O)C1c1ccccc1 (stereo not drawn)	6.0%	0.64	.	.	.	.	-0.3	.	93.6*
CCOc1cc(C(=S)N2CCOCC2)ccc1OC(=O)c1cccc(C)c1	6.9%	0.68	-19.4	-19.4	-5.2	10.8	-0.9	i	-4.4
Cn1cnc(S(=O)(=O)N[C@@H]2CC[C@@H](CC(=O)N3CCN(c4ccccc4)CC3)O[C@H]2CO)c1	.	.	2.7	2.5	-0.5	-0.2	.	i	.
O=C(Nc1ccccn1)[C@@H]1CCC(=O)N1C(=O)OCc1ccccc1	1.2%	.	.	.	.	.	-0.5	.	-0.6
COc1ccc2c3c([nH]c2c1)[C@H](CO)N(Cc1ccncc1)CC31CN(Cc2ccc(-c3ccccn3)cc2)C1	.	.	-7.2	-11.4	-2.2	-3.1	.	i	.
Cc1ccc(N=c2ssnc2Cl)cc1	7.4%	0.635	.	.	.	.	-0.3	.	-7.0
OC(CN1CCN(C(c2ccccc2)c2ccccc2)CC1)c1ccc(Br)cc1 (stereo not drawn)	-10.5%	0.673	-11.3	-40.2	3.1	0.8	2.4	i	.
C[C@@H]1CN([C@H](C)CO)C(=O)c2cc(C#Cc3ccccn3)cnc2O[C@H]1CN(C)Cc1ccncc1	.	.	-3.0	6.2	1.9	-3.2	.	i	.
Oc1ccc(Br)cc1C=Nc1ccc2[nH]ncc2c1	21.1%	0.669	9.6	18.2	-7.0	4.1	0.5	i	51.9
Cc1cccc(C)c1NC(=O)c1sccc1SCC#N	-3.0%	0.641	-14.7	-7.4	-4.0	5.0	-1.2	i	-7.5
O=C1c2ccccc2NC2(CCCC2)N1N=C1CCCC1	-2.9%	0.735	-3.8	4.0	-1.5	-1.2	3.8	i	-2.6
COCC(=O)Nc1ccc2c(c1)C(=O)N(C)C[C@@H](OC)[C@@H](C)CN(C(=O)c1ccccn1)[C@@H](C)CO2	.	.	2.5	4.0	0.2	1.9	.	i	.
CCCn1c(SCC(=O)NC(=O)Nc2ccc(C)cc2C)n[nH]c1=O	0.1%	0.676	6.7	3.0	-0.5	5.0	-0.1	i	0.4
Cc1ccc(OCC(=O)N/N=C\c2c(C)[nH]n(-c3ccccc3)c2=O)c([N+](=O)[O-])c1	.	.	.	.	.	3.4	-0.9	.	30.3
(next part)
SMILES	Vif A3G	E coli growth	Ecoli rRNA inh	Ecoli rRNA inh OD600	Ecoli rRNA inh RFP	AF4-AF9 inh	HNF4A DNA FP	FGF22 binding	ALR H2O2 inh
CO[C@H]1CC[C@H]2CCOc3c(C#N)cccc3C(=O)N(C)C[C@H](OC)[C@@H](C)C(=O)N(C)C[C@@H]1O2	.	.	0.2	6.2	0.9	4.7	.	i	.
CNC[C@@H]1Oc2ncc(C#CC3(O)CCCC3)cc2C(=O)N([C@@H](C)CO)C[C@@H]1C	.	.	3.9	7.3	0.1	1.6	.	i	.
O=c1c2ccccc2ncn1-c1ccccc1[N+](=O)[O-]	.	0.663	3.4	7.9	-1.6	-0.9	0.2	i	0.4
COC(=O)CC1(C(=O)OC)Nc2cc(Cl)c(Cl)cc2S(=O)(=O)N1O (stereo not drawn)	1.8%	.	3.8	6.9	5.5	-1.7	-0.1	i	.
